Screening data as filed in PubChem.
StopGo reporter – FMDV 2A StopGo reporter, luciferase signal; human cells with a luciferase reporter of 2A StopGo recoding; control for the full effect not named in the record; Potency, µM (doses to about 57.9 µM), for the others: top-dose signal change, negative = less light; 410,000 tested, 1.2% active; active = well fitted falling curve with a large enough effect; inconclusive = small, poorly fitted or top-dose-only effect; inactive = no such curve, though single readings can be large or run the other way; tested in HEK293T cells; also: % is scaled to controls: 0 for no effect and ±100 for the full control effect; nearly all actives have a fitted effect of over 45% in size; luciferase light after 4 h
Cruzain inh Det – blocks cruzain activity in presence of Triton detergent. P25779. purified cruzain, Z-FR-AMC fluorescence, 0.01% Triton. Potency, µM, for the others: max response, negative = inhibition, usual class: inhibitors. 200,000 tested, 0.43% active;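 also: plate controls were neutral wells for no effect and buffer without enzyme for full effect; nearly all actives have a fitted effect of over 40% in size; top concentration of the series not given in the record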
Target sequence (P25779 123-467 limits assumed): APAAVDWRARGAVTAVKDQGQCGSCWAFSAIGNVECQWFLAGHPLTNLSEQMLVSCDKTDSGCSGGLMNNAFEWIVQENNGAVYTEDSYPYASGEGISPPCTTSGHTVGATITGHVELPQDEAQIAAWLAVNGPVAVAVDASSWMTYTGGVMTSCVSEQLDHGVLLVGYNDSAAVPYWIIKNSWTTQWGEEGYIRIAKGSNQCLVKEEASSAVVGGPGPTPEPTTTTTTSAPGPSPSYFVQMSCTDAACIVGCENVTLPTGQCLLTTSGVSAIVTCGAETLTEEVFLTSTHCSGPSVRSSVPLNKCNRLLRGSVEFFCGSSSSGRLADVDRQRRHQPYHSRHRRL
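Read-out: AMC fluorescence (360 nm excitation, 450 nm emission), four reads over 2 min, first-to-third difference used. Conditions: cruzain 1.5 nM, Z-FR-AMC 2 uM, pH 5.5 acetate, 5 mM DTT, 0.01% Triton X-100.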
SARS PLpro yeast – SARS-CoV PLP inhibition in yeast | S. cerevisiae expressing SARS-CoV PLpro, growth rescue; control for the full effect not named in the record | Potency, µM (doses to about 32.9 µM), inactives show top-dose activity, positive = growth rescue | 330,000 tested, 0.19% active | AID 485353; active means well fitted rising curve with a large enough effect; inconclusive means small, poorly fitted or top-dose-only effect; inactive means no such curve, though single readings can be large or run the other way; also: 0% is about no effect; nearly all actives have a fitted effect of over 55% in size; growth read by luminescence after 48 h
Cruzain noTriton – cruzain (T. cruzi) inhibition without detergent. P25779. purified cruzain, Z-FR-AMC fluorescence, no detergent. Potency, µM, inactives show max response, negative = inhibition, usual class: inhibitors. 200,000 tested, 2.3% active. AID 1476;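 also: plate controls were enzyme without inhibitor for no effect and buffer without enzyme for full effect; nearly all actives have a fitted effect of over 40% in size; top concentration of the series not given in the record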
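Purified cruzain at 1.5 nM, pre-incubated 15 min with compound at room temperature in 100 mM sodium acetate pH 5.5, 5 mM DTT, 0.00005% Triton X-100. Reaction started with 2 uM Z-FR-AMC; AMC fluorescence increase over 60 s gives rate.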
Lassa entry inh – inhibitors of Lassa virus binding or cell entry. 300,000 tested, 1.2% active. Potency, µM (doses to about 37.9 µM), inactives show at the highest dose activity change, negative = inhibition, hits mostly inhibitors. Lassa virus pseudotype entry inhibition, cell reporter; control for the full effect not named in the record; active means well fitted inhibition curve with a large enough effect; inconclusive means small, poorly fitted or top-dose-only effect, or effect the other way; inactive means flat fitted curve, though single readings scatter; tested in HEK293 cells; also: % is scaled to controls: 0 for no effect and ±100 for the full control effect; nearly all actives have a fitted effect of over 50% in size; luciferase read-out
NS1 function inh – blocks influenza NS1 protein function. Potency, µM (top dose mostly 46.1 µM), for inactives: at the top dose activity, positive = more growth. S. cerevisiae slowed by influenza A NS1, growth recovery by OD600. 270,000 tested, 0.4% active. AID 2326; active means well fitted rising curve with a large enough effect; inconclusive means small, poorly fitted or top-dose-only effect; inactive means no such curve, though single readings can be large or run the other way; also: nearly all actives have a fitted effect of over 50% in size
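Compounds were scored for reversing the slow growth caused by influenza A NS1 in S. cerevisiae, measured by optical density at 600 nm. Assay medium contained 2% galactose at pH 6.0; NS1-free yeast of the same strain were the positive control.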
MARV entry inh – inhibitors of Marburg virus binding or cell entry; Marburg virus pseudotyped entry inhibition, cell reporter; control for the full effect not named in the record; about a third of the inactives were read at about 46 µM; Potency, µM (titrated, usually from 37.8 µM), inactives show at the highest dose activity change, negative = inhibition, actives largely listed as inhibitors; 300,000 tested, 1.8% active; active = well fitted inhibition curve with a large enough effect; inconclusive = small, poorly fitted or top-dose-only effect, or effect the other way; inactive = flat fitted curve, though single readings scatter; tested in HEK293 cells; about a fifth of its hits are not listed in these tables; also: % is scaled to controls: 0 for no effect and ±100 for the full control effect; luciferase read-out
RE007 growth inh – less growth of the S. pombe RE007 Vpr strain; AID 651644; 360,000 tested, 0.21% active; Potency, µM (top dose mostly 92.2 µM), for inactives: at the top dose activity change, negative = less growth; S. pombe RE007 Vpr strain, BacTiter-Glo ATP luminescence, 24 h; control for the full effect not named in the record; active = well fitted falling curve with a large enough effect; inconclusive = small, poorly fitted or top-dose-only effect; inactive = no such curve, though single readings can be large or run the other way;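 also: % is scaled to controls: 0 for no effect and ±100 for the full control effect; nearly all actives have a fitted effect of over 50% in size; the assay follows cell death caused by Vpr and the record does not say whether a fall means rescue or toxicity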
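Fission yeast RE007 carrying one integrated HIV-1 vpr copy, seeded at OD 0.01 in PMG+AL medium with 23 nL pinned compound. Grown 24 h at 30 degrees; viability read by BacTiter-Glo luminescence after 5 min.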
An asterisk follows results filed as active; & = joins results of further samples; [ ] = remark or other dose. Unless noted, calls follow the shape of the dose curve; as a rule, active = well fitted curve in the direction sought with a large enough effect; inconclusive = small, poorly fitted or top-dose-only effect, or another doubt; inactive = no such curve, though single readings can be large; an effect the other way counts as inactive or inconclusive. Potency is read from the fitted curve at half-maximal effect.

`CC1CCN(S(=O)(=O)c2ccc(NC(=O)CSc3nnnn3C)cc2)CC1` gave StopGo reporter 21%, Cruzain inh Det 6.5%, SARS PLpro yeast 2%, Cruzain noTriton 0%, Lassa entry inh 7%, NS1 function inh 0%, MARV entry inh 1% and RE007 growth inh -8%.
For O=C(O)C1CCCN1C(=O)Nc1ccc(Cl)cc1 (stereo not given) the results were StopGo reporter -12%, Cruzain inh Det 0.8%, SARS PLpro yeast 15%, Cruzain noTriton -8%, Lassa entry inh 0%, NS1 function inh 2%, MARV entry inh 3% and RE007 growth inh -7%.
CC(=O)N(CC(=O)Nc1nn(-c2ccccc2)nc1C(N)=O)Cc1ccccc1 was read as StopGo reporter -22%, Cruzain inh Det -1.0%, SARS PLpro yeast -3%, Cruzain noTriton -3%, Lassa entry inh 5%, NS1 function inh -9%, MARV entry inh 0% and RE007 growth inh -6%.
`Cc1nc2ccccc2c2oc(C(=O)N3CCN(c4ccc([N+](=O)[O-])cc4)CC3)cc12` gave StopGo reporter -22%, SARS PLpro yeast -1%, NS1 function inh -1% and RE007 growth inh -9%.
Screening CS(=O)(=O)N1CCN(c2ncccn2)CC1 returned StopGo reporter 14%, Cruzain inh Det 0.8%, SARS PLpro yeast 2%, Cruzain noTriton 5%, Lassa entry inh 4%, NS1 function inh 1%, MARV entry inh -1% and RE007 growth inh 6%.
Screening CCN1CCN(CCNC(=O)c2ccc(/C=C3/Sc4ccccc4N(Cc4cccc(Cl)c4)C3=O)cc2)CC1 returned StopGo reporter -27%, SARS PLpro yeast 3%, Lassa entry inh inconclusive, MARV entry inh inconclusive and RE007 growth inh -1%.
COc1ccc2[nH]c(C)c(C(=O)CN(C)CC3OCCO3)c2c1 was read as StopGo reporter 4%, SARS PLpro yeast 0%, Lassa entry inh 3%, NS1 function inh 11%, MARV entry inh 11% and RE007 growth inh -16%.
Screening Cc1cc(C)c2[nH]c(=O)c(CN(Cc3ccco3)C(=O)C3CCCO3)cc2c1 (stereo not given) returned StopGo reporter -20%, Cruzain inh Det -3.0%, SARS PLpro yeast 5%, Cruzain noTriton 5%, Lassa entry inh -7%, NS1 function inh 0%, MARV entry inh -10% and RE007 growth inh -2%.
CCSc1sccc1C1C(C#N)=C(N)N(c2cccnc2)C2=C1C(=O)CC(C)(C)C2 (stereo not given) was read as StopGo reporter -24%, Cruzain inh Det -5.3%, SARS PLpro yeast 4%, Cruzain noTriton 10%, Lassa entry inh 4%, NS1 function inh -11%, MARV entry inh -27% and RE007 growth inh -5%.
`Nc1nc(CSc2ccccn2)nc(Nc2ccccc2)n1` gave StopGo reporter 30%, Cruzain inh Det -3.7%, SARS PLpro yeast -8%, Cruzain noTriton 0%, Lassa entry inh inconclusive, NS1 function inh 3%, MARV entry inh inconclusive and RE007 growth inh 0%.
Screening CCOc1cc(NS(=O)(=O)c2ccc(OC)cc2)c(OCC)cc1NC(C)=O returned StopGo reporter 28%, SARS PLpro yeast 0%, Lassa entry inh 2%, NS1 function inh 0%, MARV entry inh -4%[46.1 µM] and RE007 growth inh 2%.
Screening COCCNC(=O)CN1C(=O)c2cccc3cccc1c23 returned StopGo reporter 8%, SARS PLpro yeast 3%, Lassa entry inh 21%, NS1 function inh inconclusive, MARV entry inh -10% and RE007 growth inh 2%.
Screening Cc1c(C)c(C)c(S(=O)(=O)NCCc2ccccn2)c(C)c1C returned StopGo reporter 28%, SARS PLpro yeast 0%, Lassa entry inh 18%[46.1 µM], NS1 function inh -24%, MARV entry inh -1%[46.1 µM] and RE007 growth inh 0%.
For COc1ccc(CNC(=O)CCc2c(C)nc3cc(-c4ccc(OC)cc4OC)nn3c2C)cc1 the results were StopGo reporter 2%, Cruzain inh Det -1.3%, Cruzain noTriton 6%, Lassa entry inh 6%[46.1 µM] and MARV entry inh -8%[46.1 µM].
CC(Cl)C(=O)Nc1cc(C(C)(C)C)nn1-c1ccccc1 (stereo not given) was read as StopGo reporter 10%, SARS PLpro yeast 0%, NS1 function inh 4% and RE007 growth inh 18%.
Screening COc1cccc(C(=O)NC2CCN(CC(=O)Nc3nccs3)CC2)c1 returned StopGo reporter -19%, Cruzain inh Det 5.1%, SARS PLpro yeast -3%, Cruzain noTriton -8%, Lassa entry inh -16%, NS1 function inh -6%, MARV entry inh inconclusive and RE007 growth inh -17%.
Screening Cc1cc(Cl)ccc1NC(=O)CN1C(=O)COc2ccc(S(=O)(=O)N3CCC(C)CC3)cc21 returned StopGo reporter 11%, Cruzain inh Det -1.5%, Cruzain noTriton 5% and Lassa entry inh 12%[46.1 µM].
For Clc1ccc(CNc2ccc(CNc3ncn[nH]3)cc2)c(Cl)c1 the results were StopGo reporter -30%, SARS PLpro yeast -1%, Lassa entry inh inconclusive, NS1 function inh 9%, MARV entry inh inconclusive and RE007 growth inh 6%.
Screening CC1CCCCC1NC(=O)CSc1ccc([N+](=O)[O-])cc1 (stereo not given) returned StopGo reporter -23%, SARS PLpro yeast 0%, Lassa entry inh 1%, NS1 function inh 3%, MARV entry inh -11%[46.1 µM] and RE007 growth inh 1%.
O=C(c1ccccc1)c1ccccc1N1C(=O)C=CC1=O was read as StopGo reporter inconclusive, SARS PLpro yeast -6%, Lassa entry inh inconclusive, NS1 function inh -76%, MARV entry inh inconclusive and RE007 growth inh 35µM*.
`CC(=O)c1ccc(S(=O)(=O)N2CCN(C(=O)c3ccc(COc4ccccc4)o3)CC2)cc1` gave StopGo reporter inconclusive, SARS PLpro yeast -1%, Lassa entry inh inconclusive, MARV entry inh inconclusive and RE007 growth inh 0%.
For Cc1cc(C)cc(NC(=O)Cn2nnc(C(=O)NCCc3ccccc3)c2N)c1 the results were StopGo reporter -10%&-2%, Cruzain inh Det -0.4%, SARS PLpro yeast -3%, Cruzain noTriton -13%, Lassa entry inh 13%[46.1 µM], NS1 function inh -17%, MARV entry inh -5%[46.1 µM] and RE007 growth inh 6%.
`CCOC(=O)NC(NC(=O)OCC)C(=O)c1ccc(F)cc1` gave StopGo reporter 0%, Cruzain inh Det -0.6%, SARS PLpro yeast -2%, Cruzain noTriton 3%, Lassa entry inh 23%, NS1 function inh -1%, MARV entry inh 20% and RE007 growth inh 8%.
For O=C(CCC1N=C2c3ccccc3N=C(SCC(=O)Nc3ccccc3F)N2C1=O)NCc1ccco1 (stereo not given) the results were StopGo reporter -10%, Cruzain inh Det -4.7%, Cruzain noTriton -4%, Lassa entry inh -4%[46.1 µM] and MARV entry inh 4%[46.1 µM].

Part of the list above in order of molecular weight, descending:
Screening Cc1cc(Cl)ccc1NC(=O)CN1C(=O)COc2ccc(S(=O)(=O)N3CCC(C)CC3)cc21 returned StopGo reporter 11%, Cruzain inh Det -1.5%, Cruzain noTriton 5% and Lassa entry inh 12%[46.1 µM].
For Clc1ccc(CNc2ccc(CNc3ncn[nH]3)cc2)c(Cl)c1 the results were StopGo reporter -30%, SARS PLpro yeast -1%, Lassa entry inh inconclusive, NS1 function inh 9%, MARV entry inh inconclusive and RE007 growth inh 6%.
CC(Cl)C(=O)Nc1cc(C(C)(C)C)nn1-c1ccccc1 (stereo not given) was read as StopGo reporter 10%, SARS PLpro yeast 0%, NS1 function inh 4% and RE007 growth inh 18%.

Next section.
Screening CCC(=O)Nc1cccc(C(=O)/C=C/c2cccs2)c1 returned StopGo reporter 11%, SARS PLpro yeast -5%, NS1 function inh -81% and RE007 growth inh -15%.
`COC(=O)c1ccccc1S(=O)(=O)N1Cc2cc([N+](=O)[O-])ccc2Oc2ccccc21` gave StopGo reporter inconclusive, Cruzain inh Det -2.2%, SARS PLpro yeast -14%, Cruzain noTriton inconclusive, Lassa entry inh -7%, NS1 function inh 9%, MARV entry inh inconclusive and RE007 growth inh -10%.
`Cc1ccc(OCCC(=O)NNC(=O)c2nn(C)c(=O)c3ccccc23)cc1` gave StopGo reporter -23%, SARS PLpro yeast 0%, Lassa entry inh 11%, MARV entry inh -45% and RE007 growth inh -12%.
`Cc1ccc(N(CCC(=O)Nc2nnc(C3CC3)s2)S(=O)(=O)c2ccccc2)cc1` gave Cruzain inh Det -1.5%, SARS PLpro yeast 8%, Cruzain noTriton 8%, Lassa entry inh -5%, NS1 function inh 2% and MARV entry inh -4%.
Screening CCOC(=O)Cc1c(C)nc2c(-c3ccc(Cl)cc3)c[nH]n2c1=O returned StopGo reporter -13%, Cruzain inh Det 4.5%, SARS PLpro yeast 2%, Cruzain noTriton -8%, Lassa entry inh -25%, NS1 function inh -9%, MARV entry inh inconclusive and RE007 growth inh 1%.
COc1ccc(N(C(=O)Cn2nnc(-c3ccc(Cl)cc3)n2)C(C(=O)NCC2CCCO2)c2ccncc2)cc1 (stereo not given) was read as StopGo reporter -16%, SARS PLpro yeast 0%, Lassa entry inh 0%, NS1 function inh 1%, MARV entry inh 10%[46.1 µM] and RE007 growth inh 11%.
For O=C(CC1C(=O)NCCN1CC1CCCCC1)NCc1ccc(Cl)cc1 (stereo not given) the results were StopGo reporter -6%, SARS PLpro yeast 0%, NS1 function inh -2% and RE007 growth inh 0%.
For CC(C)CC(=O)N1CCN(S(=O)(=O)c2ccccc2)CC1 the results were StopGo reporter inconclusive, Cruzain inh Det -4.9%, SARS PLpro yeast 3%, Cruzain noTriton -1%, Lassa entry inh 5%, NS1 function inh -2%, MARV entry inh -1% and RE007 growth inh -15%[3.69 µM].
For Cn1c(CCc2ccccc2)nnc1SCC(=O)N1CCCC1 the results were StopGo reporter 7%, Cruzain inh Det 10%, SARS PLpro yeast 2%, Cruzain noTriton -10%, Lassa entry inh 2%, NS1 function inh 0%, MARV entry inh 23%[46.1 µM] and RE007 growth inh -8%.
`CSc1nc(N)c(C#N)c(-c2ccccc2Cl)c1C#N` gave StopGo reporter -24%, Cruzain inh Det -6.4%, SARS PLpro yeast 0%, Cruzain noTriton -8%, Lassa entry inh inconclusive, NS1 function inh 12%, MARV entry inh inconclusive and RE007 growth inh 21%.
Screening CC(C)Nc1ccc(-c2nc(-c3ccco3)no2)cc1[N+](=O)[O-] returned StopGo reporter 0%, Cruzain inh Det -0.5%, Cruzain noTriton 19%, Lassa entry inh 2%[46.1 µM] and MARV entry inh -17%[46.1 µM].
